NPYLR7 agonist – activates Aedes aegypti NPYLR7 receptor; HEK293T NPYLR7/Galpha15, GCaMP6s calcium fluorescence; activation, % at 10 µM; actives 0.15% (n = 270,000); AID 1259423; in the data active means activation above about 40%;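 further: 0% = vehicle and 100% = reference agonist at the receptor; some compounds past the cut are filed as inactive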
NPYLR7 agonist max-min – recorded beside NPYLR7 agonist, whose call it bears; activation, %; measured here: Max-Min RFU normalised activation; some inactives read as strong as hits;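 span of the calcium signal over five minutes; 0% = vehicle and 100% = native peptide agonist; compound fluorescence can raise it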
The depositor's hits bear a star; & = joins results of further samples.

canonical_smiles,NPYLR7 agonist,NPYLR7 agonist max-min
Cc1cc([N+](=O)[O-])nn1CC(=O)Nc1nnc(C2CC2)s1,-4.3,-5.1
O=C(NC1CC(=O)N(CCCc2ccccc2)C1)c1cccc2nccnc12 (configuration not stated),4.8,2.1
CCCCn1c(CN(C)Cc2cccc(C(F)(F)F)c2)cnc1S(=O)(=O)CC,-1.6,-3.1
O=c1[nH][nH]c(=O)c2c1nc(SCc1ccccc1F)n2Cc1ccccc1,-8.7,-8.3
COc1ccc(C(=O)Nc2ccc(-c3nc4ccccc4o3)cc2)cc1OC,3.5,1.0
CCOCCOc1nc(-c2ccccc2C)n(-c2ccc(NC(=O)CCCCl)cc2)n1,-0.9,-0.7
COc1ccc(C(=O)C=Cc2ccccc2Br)c(OC)c1,-2.2,-9.9
Cc1ccc(C)c(OC(C)C(=O)NCc2csc(N)n2)c1 (configuration not stated),3.1,-8.6
COc1cccc(-c2nnc(SCc3nc(C(=O)N4CCc5ccccc5C4)cs3)n2-c2ccccc2)c1,4.3,12.2
O=C(O)CN1C(=O)CSC1=O,-1.1,-3.9
COc1cccc(CN2CCCC3(CCN(C(=O)CCCCc4ccccc4)C3)C2)c1 (configuration not stated),11.8,3.3
O=C(CCn1cnc2ccccc21)N1CCCC(O)(CO)CC1 (configuration not stated),5.0,5.3
CNc1nc2cnc(Nc3cccc(C)c3)cc2n1Cc1ccccc1,7.3,-1.1
COc1ccc(-n2c(Cc3ccccc3)nnc2SCCCC(=O)N2CCN(C(=O)CC(C)CC(C)(C)C)C(C)C2)cc1 (configuration not stated),12.9,17.9
CC(=O)C1=C(c2ccc(Cl)c(Cl)c2)N(C(C)=O)n2c(nnc2C2CCCCC2)S1,10.8,7.0
O=C(N=C1N=C2C=CC(I)=CN2Cc2ccccc21)C12CC3CC(CC(C3)C1)C2,2.5,24.7
COc1cccc(C(=O)Nc2nc(-c3ccccc3)cs2)c1,-2.2,-2.8
CNC(=O)c1nnc2n1C(c1ccccc1)CN(C(=O)c1ccc(C(C)C)cc1)C2 (configuration not stated),8.2,3.5
CCOC(=O)c1nn(-c2ccc(Cl)cc2)c2ccccc2c1=O,3.9,7.3
FC(F)Oc1ccccc1-n1cccc1,16.4,7.2
Cc1ccc(S(N)(=O)=O)cc1C(=O)Nc1ccc(F)cc1,-0.3,-0.4
COc1ccc(OCC2CN(CC(C)(C)CN(C)C)C(=O)c3cccnc3O2)cc1 (configuration not stated),5.2,18.4
O=C(NO)C12CCCC(CCC1)C2,0.2,-1.8
Cn1c(=O)c2c(ncn2CCSc2ncnc3sccc23)n(C)c1=O,-0.8,-0.3
Cc1ccccc1-c1ncc(CNC2CCN(S(C)(=O)=O)CC2)s1,-3.8,-7.9
Cc1sc2ncnc(N3CC(O)CC3C(N)=O)c2c1C (configuration not stated),4.7,4.2
c1ccc(Cn2cccn2)c(CN2CCCN3CCC[C@H]3C2)c1,2.1,1.2
COC(=O)c1ccc(OCC(=O)N(C)C2CCCCC2)c(OC)c1,10.4,8.1
CCN(CC)Cc1cc(C(=O)N2CCOC3(CNCCOC3)C2)c(C)o1 (configuration not stated),9.6,5.8
Cc1ccc(C)c2sc(N(CCCn3ccnc3)C(=O)/C=C/c3cccs3)nc12,-10.5,-11.1
O=C(Cc1cccs1)Nc1ccc(-c2ncn[nH]2)cc1,-1.2,-6.0
Cc1cc(N2CCOC(C(F)(F)F)C2)nc(-c2ccccc2O)n1 (configuration not stated),-1.1,-3.7
Cc1nc(SCc2cccc(C(=O)NCc3cccnc3)c2)nc(N2CCN(c3ccccc3Cl)CC2)c1C,6.1,8.8
CCS(=O)(=O)c1ccc2c(c1)N(Cc1ccccc1Cl)C(=O)C(C)O2 (configuration not stated),3.1,0.5
O=C(CN1CCCC1)N1N=C(c2ccccc2)CC1c1ccccc1 (configuration not stated),-0.1,5.6
CC(=O)Nc1cc(C(=O)N2CCCC(c3ccccc3)C2)c2c(c1)nc(C)n2Cc1ccccc1 (configuration not stated),12.1,12.0
CCOC(=O)CN1CCN(c2ccc(C)c(F)c2)C(=O)C1C (configuration not stated),24.8,22.7
Cc1ccc(C(=O)N/C(=C/c2ccc([N+](=O)[O-])cc2)C(=O)N2CCC(C)CC2)cc1,-2.4,-5.4
C=C1c2ccccc2C(=O)N1CCC(=O)NCCOc1ccccc1F,2.7,2.9
COC(=O)c1sc2ccccc2c1NC(=O)c1coc2ccccc2c1=O,-0.6,3.5
O=C(NC(c1ccccc1)c1ccc(Cl)cc1)c1cccnc1Oc1cccc([N+](=O)[O-])c1 (configuration not stated),-10.6,-17.4
COC(CNCc1cn[nH]c1-c1cccs1)OC,5.5,2.1
Cc1ccc(C(C)(C)CC(=O)NCc2ccc(CS(N)(=O)=O)cc2)cc1,-2.2,-3.1
O=S(=O)(Nc1ccc(S(=O)(=O)NC2CC2)cc1)c1cccc(Br)c1,-0.1,0.6
CS(=O)(=O)c1ncc(CN2CCc3sccc3C2)n1CC1CCCO1 (configuration not stated),2.3,-0.7
COc1ccc(-c2nc(CSc3nc(C(C)(OC)OC)ccc3C#N)cs2)cc1OC,1.0,-3.4
CCOC(=O)c1nn(-c2ccc(C)cc2)c(=O)cc1N1CCCc2ccccc21,4.4,3.5
O=C(NCCO)c1cccc(-c2cnc3c(Nc4cccc(OC(F)(F)C(F)F)c4)nccn23)c1,-3.1,-5.4

Filtered by structure, the compounds so far with a nitro group on carbon.
canonical_smiles,NPYLR7 agonist,NPYLR7 agonist max-min
Cc1cc([N+](=O)[O-])nn1CC(=O)Nc1nnc(C2CC2)s1,-4.3,-5.1
Cc1ccc(C(=O)N/C(=C/c2ccc([N+](=O)[O-])cc2)C(=O)N2CCC(C)CC2)cc1,-2.4,-5.4
O=C(NC(c1ccccc1)c1ccc(Cl)cc1)c1cccnc1Oc1cccc([N+](=O)[O-])c1 (configuration not stated),-10.6,-17.4

Continued:
canonical_smiles,NPYLR7 agonist,NPYLR7 agonist max-min
Cc1ccc(C(=O)Nc2cccc(C(=O)NC3CC3)c2)cc1F,-5.8,-6.7
O=C1NCC2(CCCN(C(=O)c3ccc(-c4ccn[nH]4)cc3)CC2)O1 (configuration not stated),0.1,-1.6
COCc1nc(-c2ccccc2)nc(N2CCN(S(C)(=O)=O)CC2)c1Cc1ccc(Cl)cc1,8.5,16.5
Cc1cccc(-c2cc(N)n(-c3ccc(C(=O)NCC(c4ccccc4)c4ccccc4)cc3)n2)c1,-6.3,-11.9
COC(=O)c1ccc(Cn2nc(C3CC3)c3cnn(-c4ccccc4C)c3c2=O)o1,6.8,4.5
Cc1ccc(S(=O)(=O)NCC2CN(c3ccccc3)C(=O)O2)cc1 (configuration not stated),3.7,2.6
O=C(NC1CC1)C(c1ccccc1)N1CCN(S(=O)(=O)c2cc(Cl)ccc2Cl)CC1 (configuration not stated),-3.0,2.4
COc1ccccc1C(C)NCc1cc(Br)cs1 (configuration not stated),-1.4,-3.0
CC(C)c1noc(CCCC(=O)N(CCC#N)c2ccc(F)cc2)n1,6.3,8.6
COC(=O)C(C)Sc1nnc(-c2ccncc2)n1-c1cccc(C(F)(F)F)c1 (configuration not stated),-4.3,1.4
COc1ccc(C2(O)CN(c3cc(C)ccc3C)C3=[N+]2CCCC3)cc1OC (configuration not stated),-2.2,-2.5
CC(C)(C)c1ccc(S(=O)(=O)N2CCN(C(=O)CN3CCc4sccc4C3c3ccc(Cl)cc3)CC2)cc1 (configuration not stated),7.4,-2.6
CCOC(=O)CNC(=O)N1CCc2onc(-c3cccc4ccccc34)c2C1,-21.9,-17.6
CC1CCC2(CC1)NC(=O)N(NC(=O)CSc1nnc(NC3CC3)s1)C2=O (configuration not stated),7.5,8.4
CC1=C(C)CC2C(=O)N(c3ccc(F)cc3)C(=O)C2C1 (configuration not stated),-0.8,-4.5
Cc1ccc2nc(-c3ccc(C(F)(F)F)cc3)c(NCc3ccccc3)n2c1,9.1,6.7
O=C(C1CCCO1)N1CCN(c2nc(-c3cccnc3)nc3c2CNC3)CC1 (configuration not stated),3.6,-0.7
O=C(O)c1ccccc1Sc1ccc(Br)cn1,10.9,9.1
NS(=O)(=O)c1ccc(N=Nc2c(O)[nH]c3ccc(Br)cc23)cc1,3.3,2.4
CC(=O)c1cc(CN2CCCC(CCC(=O)N3CCN(C)CC3)C2)cs1 (configuration not stated),4.0,2.0
CNCc1c(C)nn(Cc2ccccc2Cl)c1C,-15.0,-16.7
COc1ncc(C(=O)N2CCCN(Cc3cccs3)CC2)cn1,4.9,1.2
O=C(c1cnsn1)N1CCc2c([nH]c3ccccc23)C1c1ccccc1F (configuration not stated),2.7&-4.8,-0.5&-12.3
Cc1ccc(Cl)c2sc(=NC(=O)C(C)(C)C)n(C)c12,16.5,12.8
COc1cc(CN2CCC(N3CCCC3=O)CC2)ccc1OC(C)C,7.2,5.4
OCCNc1cc(-c2ccc(N3CCOCC3)cc2)c2cc[nH]c2n1,5.6,5.5
CCCCn1c(CNC(=O)C23CC4CC(CC(C4)C2)C3)nnc1SCC,-1.4,-3.2
O=C(CN1CCN(c2ccc([N+](=O)[O-])c3cnccc23)CC1)Nc1ccc(OC(F)(F)F)cc1,-3.4,-4.0
CCN(CC)C(=O)[C@@H]1C[C@H](N)CN1C(=O)c1c(C)n(C)c2ccc(O)cc12,-7.4,-7.1
CCCCc1c(C)c(C#N)c2[nH]c3ccccc3n2c1=O,-0.9&1.6,-5.2&0.4
O=c1oc2ccc3ccccc3c2cc1-c1nnc(Nc2ccccc2F)s1,-8.6,-11.6
CSc1nc2ncc3c(=O)n(-c4cc(Cl)ccc4Cl)ccc3n2n1,-1.0,4.2
COC(=O)c1ccc(-c2noc(CN3CCN(Cc4ncccc4C)CC3)n2)cc1,-1.6,-3.8
COc1ccc(C(CC(=O)NCc2ncc[nH]2)c2ccccc2)cc1 (configuration not stated),4.7,5.7
COc1ccc(NC(=O)C2(C)CCN2C(=O)Cc2ccc(C(C)(C)C)cc2)cc1OC (configuration not stated),-6.3,-12.9
CCOC(=O)c1ccc(OC2CC3CCC(C2)N3C(=O)c2ccc(CSc3nc4ccccc4s3)cc2)cc1 (configuration not stated),6.1,-6.6
Cc1ccc(Cc2c(N)nn3c2NC(c2cccnc2)C(C#N)C3=N)cc1 (configuration not stated),7.8,11.8
O=S(=O)(c1cccc2ccccc12)N1CCN(C(c2ccccc2)c2ccc(Br)cc2)CC1 (configuration not stated),5.8,4.1
O=S(=O)(NC1CCCC1)c1cncc(Cl)c1,-0.6,-2.0
CN(CC1CCCN(Cc2nnsc2Cl)C1)C(=O)OC(C)(C)C (configuration not stated),-0.4,-5.4
CC(=O)Nc1sc2c(c1C#N)CCC2,-9.3&2.4,-17.3&2.2
O=C(c1nnc2n1CCN(C(=O)C1(c3ccc(Cl)cc3)CCCC1)C2)N1CCOCC1,8.5,3.5
Cc1ccccc1-n1nc2c(c1NC(=O)/C=C\c1ccccc1)CSC2,-0.5,2.8
Cn1c(C(=O)NC2CC(=O)N(Cc3cccc(F)c3)C2)cc2ccccc21 (configuration not stated),14.4,9.2
O=c1[nH]nc(-c2ccccc2O)n1-c1ccc(Br)cc1,0.1,-0.5
Nc1nc(NCCO)nc(N2CCN(Cc3ccccc3)CC2)c1[N+](=O)[O-],0.6,-1.1
CCc1nc(C(N)=O)c2[nH]c(=O)n(-c3ccc(OC)cc3OC)c2n1,10.3,2.5
CC(=O)Nc1ccc(S(=O)(=O)N2CCC(Cc3ccc4c(c3)OCO4)CC2)cc1,10.2,12.0

Look-ups from above:
NPYLR7 agonist max-min with O=c1[nH]nc(-c2ccccc2O)n1-c1ccc(Br)cc1 = -0.5
NPYLR7 agonist with O=C(c1nnc2n1CCN(C(=O)C1(c3ccc(Cl)cc3)CCCC1)C2)N1CCOCC1 = 8.5
NPYLR7 agonist max-min with CC(=O)Nc1ccc(S(=O)(=O)N2CCC(Cc3ccc4c(c3)OCO4)CC2)cc1 = 12.0
NPYLR7 agonist max-min with Cc1ccccc1-n1nc2c(c1NC(=O)/C=C\c1ccccc1)CSC2 = 2.8
NPYLR7 agonist max-min with CC(=O)Nc1sc2c(c1C#N)CCC2 = -17.3&2.2
NPYLR7 agonist max-min with Cn1c(C(=O)NC2CC(=O)N(Cc3cccc(F)c3)C2)cc2ccccc21 (configuration not stated) = 9.2
NPYLR7 agonist max-min with CCc1nc(C(N)=O)c2[nH]c(=O)n(-c3ccc(OC)cc3OC)c2n1 = 2.5

Next section.
canonical_smiles,NPYLR7 agonist,NPYLR7 agonist max-min
CC(=O)c1c(C)nn(CCC(=O)N2CCN3CCN(C)C(=O)C3C2)c1C (configuration not stated),3.2,13.0
CCC/C(=N\NC(=O)C1CC12CCC2)c1ccccc1 (configuration not stated),-2.2,-4.0
O=C(Nc1ncc([N+](=O)[O-])s1)c1cccn(OCc2ccc(F)cc2)c1=O,17.3,9.8
Cc1cccc(NCN2C(=O)/C(=C\c3cccc(Br)c3)SC2=S)c1C,-8.0,-17.0
COC(=O)c1ccc(-c2nc(CN(Cc3c(C)nn(C)c3C)C(C)C)c(C)o2)cc1,6.7&1.5,6.8&-0.6
CC(C)c1ccc(NC(=O)C(C)N2CCN(CC(=O)N3CCCCCC3)CC2)cc1 (configuration not stated),3.5,3.4
Cc1cc(C)c(S(N)(=O)=O)c(C)c1N(C)S(=O)(=O)c1ccccc1,9.1,9.7
COCCNC(CC(=O)Nc1ccc(Br)cc1)C(=O)O (configuration not stated),2.2,0.3
Cc1cc(C(=O)N2CCc3nc(C)ncc3C2)on1,-8.8,-9.6
COc1cccc(N2CCCC(NC(=O)Cc3cccc(O)c3)C2)c1 (configuration not stated),5.1,2.6
CC1CC[C@@]2(OC1)O[C@H]1CC3C4CC[C@@H]5C[C@@H](O)CC[C@]5(C)C4CC[C@]3(C)[C@H]1[C@@H]2C (some centres not stated),-6.6,-13.5

Compound activity from PubChem BioAssay.

These rows are one share of the data; count on the stated rates, not on these rows.
